Calb FLC: C. albicans growth modulation with fluconazole. C. albicans CaCi-2 (fluconazole-resistant clinical isolate) + fluconazole, Alamar Blue growth, 48 h. growth inhibition, % (concentration not given with the values). 300,000 compounds, 0.57% hits. AID 1979;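 active = most replicates above 75%; inconclusive = exactly half above 75%; inactive = most below 75%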;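 note: all wells also contain fluconazole at 8 µg/ml as a sub-toxic cotreatment; 0% = median of DMSO wells and 100% = median of geldanamycin control wells; wells of about 8 µL received 7.5 nL stock; the first replicate is given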
ALR inh: blocks human ALR sulfhydryl oxidase activity; purified ALR, DTT oxidation, H2O2 HRP-luminol luminescence; P55789; AID 485317; 290,000 compounds, 3.8% hits; inhibition, % (test concentration not listed);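 active = mean and each replicate at 75% or more; inconclusive = only one of the two met; inactive = neither met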;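 note: stock transfer was 7.5 nL into about 7.5 µL; 0% = neutral wells and 100% = wells with inactivated enzyme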
Target sequence (P55789 whole entry, looked up): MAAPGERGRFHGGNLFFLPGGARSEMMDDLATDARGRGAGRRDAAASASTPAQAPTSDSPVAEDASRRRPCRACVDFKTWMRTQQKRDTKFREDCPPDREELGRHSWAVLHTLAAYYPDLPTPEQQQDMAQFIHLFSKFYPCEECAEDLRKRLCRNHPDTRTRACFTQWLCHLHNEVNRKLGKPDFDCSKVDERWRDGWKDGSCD
Vif A3G: HIV-1 Vif–A3G interaction blockers – biochemical, TR-FRET, GST-Vif 1-94, biotin-A3G peptide, dose response retest, primary screen (AID 1117319); TR-FRET GST-Vif / biotin-A3G peptide binding; higher % means a stronger effect; test concentration not given here; strong numbers were not always called active; inhibition, %, or IC50 in µM where a hit was titrated; 260,000 compounds, 0.57% hits;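 active = above the screen mean plus three standard deviations and confirmed in dose response; inconclusive = results disagree or hit not tested in dose response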;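 note: Vif residues 1-94 fused to GST binding biotinylated APOBEC3G peptide 110-148; 0% = full assay without inhibitor and 100% = GST in place of GST-Vif; retest series ran down from 100 µM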
LANA-H2B inh: blocks KSHV LANA binding to histone H2A/H2B | Q9QR71 | cell-free LANA-H2A/H2B peptide, fluorescence polarization | inhibition, % (test concentration not listed) | 320,000 compounds, 0.6% hits | AID 2629; in the data active = inhibition mostly above about 10%, no sharp cut-off; inactive = mostly below about 6.7%;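 note: stock transfer was 7.5 nL into about 10 µL; 0% = median of vehicle wells and 100% = median of positive control wells; one replicate is shown; the record names a cut of 25% in any replicate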
HNF4A DNA FP: change in binding of human HNF4 alpha to DNA; HNF4a-FITC DNA binding, fluorescence polarization, 1 h; 360,000 compounds, 0.3% hits; activity change, % at 10 µM; AID 1224865; in the data active = activity change above about 30%, passing the limit was not always enough;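 note: controls were the assay level and a saturating level of protein; the project sought stronger binding though the title names inhibitors; some compounds called inactive have numbers as strong as hits; positive values seem to mean higher polarization but the record does not say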
Target sequence (P41235 whole entry, looked up): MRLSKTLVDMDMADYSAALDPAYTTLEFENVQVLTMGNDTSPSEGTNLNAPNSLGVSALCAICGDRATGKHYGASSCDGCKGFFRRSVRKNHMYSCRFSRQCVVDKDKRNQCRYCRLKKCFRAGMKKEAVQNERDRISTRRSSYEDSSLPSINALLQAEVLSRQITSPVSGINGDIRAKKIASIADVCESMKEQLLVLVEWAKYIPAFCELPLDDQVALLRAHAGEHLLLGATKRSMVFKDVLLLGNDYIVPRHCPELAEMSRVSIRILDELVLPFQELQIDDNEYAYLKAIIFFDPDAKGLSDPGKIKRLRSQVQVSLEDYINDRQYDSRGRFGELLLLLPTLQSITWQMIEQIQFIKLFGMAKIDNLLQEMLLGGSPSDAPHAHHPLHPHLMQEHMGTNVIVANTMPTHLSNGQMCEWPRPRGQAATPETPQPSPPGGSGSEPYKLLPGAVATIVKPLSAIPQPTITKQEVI
Beta2AR agonist: agonists of human beta-2 adrenergic receptor inducing internalization. 340,000 compounds, 0.43% hits. Am2.2-beta2AR cells, FAP receptor internalization, flow cytometry; reference of the scale not given here. AID 504454. response, % (test concentration not listed). P07550;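 active = response above a set limit, near 3 SD of response in nonfluorescent compounds, cut at about 42% in these data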;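 note: stock transfer was 100 nL into about 11 µL; a reference agonist was the positive control; negative values mostly stem from fluorescent compounds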
Target sequence (P07550 whole entry, looked up): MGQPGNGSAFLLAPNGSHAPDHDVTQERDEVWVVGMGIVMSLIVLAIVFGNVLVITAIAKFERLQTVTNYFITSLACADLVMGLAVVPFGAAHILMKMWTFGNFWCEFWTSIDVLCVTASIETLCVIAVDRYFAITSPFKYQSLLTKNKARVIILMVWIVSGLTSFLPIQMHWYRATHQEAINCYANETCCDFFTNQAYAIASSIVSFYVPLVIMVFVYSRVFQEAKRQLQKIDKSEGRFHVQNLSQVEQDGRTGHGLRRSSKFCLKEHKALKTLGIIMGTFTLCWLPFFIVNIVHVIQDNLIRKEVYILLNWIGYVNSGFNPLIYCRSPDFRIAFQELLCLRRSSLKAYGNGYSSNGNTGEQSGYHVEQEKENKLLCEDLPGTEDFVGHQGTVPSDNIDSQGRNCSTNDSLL
RanGTP-Impb inh: disruptors of Ran-importin-beta complex formation – biochemical, FRET, CFP-Ran, YFP-importin-beta, homogeneous, primary screen. cell-free CFP-Ran/YFP-importin-beta FRET ratio. inhibition, % (concentration not given with the values). 300,000 compounds, 1.1% hits;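 active = most replicates above 15%; inconclusive = exactly half above 15%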;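 note: 0% = DMSO wells and 100% = Ran loaded with GDP instead of GTP; wells of about 40 µL received 100 nL stock; the first replicate is given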
* marks the source's active call; other numbers are inactive results; u = inconclusive; x = not tested or not shown.

item	smiles	ALR inh	Vif A3G	RanGTP-Impb inh	Beta2AR agonist
1	COCCNC(=O)C(=O)Nc1ccc(Cl)cc1C	x	4%	12	2
2	CCCc1nc(SCC(=O)N2c3ccccc3CC2C)c2c(C)c(C)sc2n1 (centres undefined)	-4	-8%	3.8	-35
3	Cc1cccc(N(C)C(=S)Oc2ccc3ccccc3c2)c1	-35	2%	3.2	-7
4	Cc1ccc(N2Cc3ccccc3C2=S)cc1	-3	3%	6.7	1
5	COc1ccc(CCNc2ccc([N+](=O)[O-])cn2)cc1	-6	x	1.2	2
6	COc1ccc(CCNC(=O)CSc2nnc3c(n2)[nH]c2ccc(F)cc23)cc1OC	x	x	-2.6	0
7	O=c1c2ccccc2nc(/C=C/c2ccc(Br)cc2)n1CCO	-7	x	3.4	-19
8	O=C(c1ccc(Cl)c(S(=O)(=O)Nc2ccccc2C(=O)N2CCc3ccccc3C2)c1)N1CCc2ccccc2C1	3	6%	-0.6	-4
9	CCc1ccc(S(=O)(=O)NCc2cn3cccc(C)c3n2)s1	-5	3%	1.4	-1
10	C=C(C)COc1ccc(-c2[nH]ncc2Oc2ccc(OC)cc2)c(O)c1	12	8%	-0.8	1

item	HNF4A DNA FP	Calb FLC	LANA-H2B inh
1	-1.1	-7	-3.3
2	1.4	-13	-6.4
3	-2.0	x	-10
4	6.4	-4	3.7
5	1.9	1	-5.3
6	-1.4	-3	-2.9
7	-1.8	1	-0.1
8	-2.5	39	0.3
9	3.6	-4	2.0
10	-2.8	-1	-7.4

Some of these compounds in order of molar mass, descending:
item	smiles	ALR inh	Vif A3G	RanGTP-Impb inh	Beta2AR agonist
8	O=C(c1ccc(Cl)c(S(=O)(=O)Nc2ccccc2C(=O)N2CCc3ccccc3C2)c1)N1CCc2ccccc2C1	3	6%	-0.6	-4
6	COc1ccc(CCNC(=O)CSc2nnc3c(n2)[nH]c2ccc(F)cc23)cc1OC	x	x	-2.6	0
2	CCCc1nc(SCC(=O)N2c3ccccc3CC2C)c2c(C)c(C)sc2n1 (centres undefined)	-4	-8%	3.8	-35
7	O=c1c2ccccc2nc(/C=C/c2ccc(Br)cc2)n1CCO	-7	x	3.4	-19
10	C=C(C)COc1ccc(-c2[nH]ncc2Oc2ccc(OC)cc2)c(O)c1	12	8%	-0.8	1
3	Cc1cccc(N(C)C(=S)Oc2ccc3ccccc3c2)c1	-35	2%	3.2	-7
5	COc1ccc(CCNc2ccc([N+](=O)[O-])cn2)cc1	-6	x	1.2	2
1	COCCNC(=O)C(=O)Nc1ccc(Cl)cc1C	x	4%	12	2
4	Cc1ccc(N2Cc3ccccc3C2=S)cc1	-3	3%	6.7	1

item	HNF4A DNA FP	Calb FLC	LANA-H2B inh
8	-2.5	39	0.3
6	-1.4	-3	-2.9
2	1.4	-13	-6.4
7	-1.8	1	-0.1
10	-2.8	-1	-7.4
3	-2.0	x	-10
5	1.9	1	-5.3
1	-1.1	-7	-3.3
4	6.4	-4	3.7

Next part:
item	smiles	ALR inh	Vif A3G	RanGTP-Impb inh	Beta2AR agonist
11	Cc1sc2ncnc(OCC(=O)Nc3ccc4c(c3)OCCO4)c2c1C	1	-6%	3.9	16
12	Cc1ccccc1OCC(=O)OCC(=O)NC1CC1	-8	-1%	x	-1
13	Cc1ccc(-n2c(-c3ccco3)nc3c(cnn3-c3ccc(C)cc3)c2=O)cc1	-13	2%	-0.1	-1
14	CCN1CCN(C(=O)CN2C(=O)c3cccc4cccc2c34)CC1	-9	0%	-5.4	-1
15	O=C(CN1CCc2ccccc2C1)NCc1ccco1	-36	3%	1.6	0
16	CCOC(=O)c1ccc(NS(=O)(=O)c2ccc3oc(=O)[nH]c3c2)cc1	-1	88µM*	0.6	4
17	Cc1ccc(NC2=Nc3ccccc3CC2)cc1	6	-5%	1.6	4
18	COc1ccccc1CC1CC(=O)N(c2cccc(Cl)c2C)C1=O (centres undefined)	-27	0%	0.8	10
19	CC(OC(=O)CNS(=O)(=O)c1ccc(C#N)cc1)C(=O)Nc1ccc(Cl)cn1 (centres undefined)	x	-2%	0.4	-1
20	Cc1nc2ccc(Nc3nc4cc(S(=O)(=O)N5CCOCC5)ccc4o3)cc2s1	-14	-2%	9.4	17

item	HNF4A DNA FP	Calb FLC	LANA-H2B inh
11	-2.1	1	-1.9
12	4.4	x	3.0
13	-3.1	-3	0.0
14	0.9	13	-2.4
15	0.1	0	-2.0
16	-0.5	-1	-0.6
17	-1.2	-10	2.5
18	-1.0	5	4.2
19	-1.2	-2	x
20	5.6	6	-7.2

(further entries)
item	smiles	ALR inh	Vif A3G	RanGTP-Impb inh	Beta2AR agonist
21	O=C(COc1ccc(F)cc1Cl)Nc1cc(S(=O)(=O)N2CCOCC2)ccc1N1CCCCC1	-2	x	0.6	4
22	Cc1c(C(=O)N2CCCCC2)oc2ccc(Br)cc12	4	-4%	-1.3	-3
23	COc1ccccc1NS(=O)(=O)c1cc(-c2cnc(C3CC3)o2)ccc1C	-5	x	4.6	9
24	CC(=O)c1cc2c(cc1NC(=O)CSc1nc3ccccc3[nH]1)OCO2	3	3%	-0.8	x
25	CCCCC(=O)Nc1ccc(S(=O)(=O)Nc2nccc(C)n2)cc1	-3	6%	-0.1	3
26	N#CC12CCCCC1CC1CCCCC1(C#N)N2Cc1ccccn1 (centres undefined)	-4	21%	1.4	0
27	CCN(C(=O)c1c(C)noc1C)c1c(N)n(Cc2ccccc2)c(=O)[nH]c1=O	0	-9%	x	-2
28	O=c1[nH]c2ccccc2c2nc(-c3cccc(S(=O)(=O)N4CCCC4)c3)nn12	-10	-25%	-2.9	20
29	CC(=O)N=c1scc(-c2ccccc2)n1-c1cccc(O)c1	-1	x	3.6	2
30	O=C(O)C1Cc2ccccc2CN1C(=O)COc1ccc(Cl)cc1 (centres undefined)	-24	4%	-1.3	3

item	HNF4A DNA FP	Calb FLC	LANA-H2B inh
21	3.9	-6	4.2
22	3.5	-3	-0.2
23	0.0	-4	-1.2
24	x	-7	-0.4
25	-3.1	-5	-5.5
26	0.0	-4	-2.1
27	0.8	x	-3.0
28	7.2	-10	0.9
29	0.7	1	-3.8
30	-2.9	3	-2.3

Later entries:
item	smiles	ALR inh	Vif A3G	RanGTP-Impb inh	Beta2AR agonist
31	COc1ccc(CCNC(=O)CC2SC(=NCCc3ccccc3)NC2=O)cc1OC (centres undefined)	-9	x	1.5	3
32	O=C(Nc1cccc(C(=O)N2CCCCCC2)c1)c1ccco1	0	-4%	2.8	-4
33	CN1CCN(c2nc3c(c(=O)n(C)c(=O)n3C)n2CC(N)=O)CC1	-4	u	6.0	-2
34	CCOC(=O)Cc1cc(=O)[nH]n(-c2ccccc2)c1=O	x	1%	x	-5
35	O=C(OCC(=O)N1CCOCC1)c1cc(-c2ccccc2)nc2ccccc12	-4	-5%	x	-13
36	C=CC[C@H](CC(=O)N(CCO)Cc1ccccc1)C(=O)N[C@@H](COC(=O)[C@@H](CC=C)Cc1ccc(F)cc1)Cc1c[nH]c2ccccc12	-3	-7%	x	-2
37	Cc1c(Cl)cccc1NC(=O)c1cccc(OC(F)F)c1	-3	-1%	-1.8	-5
38	Cn1nnnc1SCC(=O)Nc1ccccc1Br	1	x	-0.5	-10
39	O=C(CSc1ncccn1)N1CCCC1	-1	x	-3.0	-4
40	N=C1c2c(cc(=O)n3c2[nH]c2ccccc23)CN1CCN1CCOCC1	4	-3%	3.6	20

item	HNF4A DNA FP	Calb FLC	LANA-H2B inh
31	5.6	-5	3.9
32	-0.1	-4	-0.5
33	-4.4	5	-0.2
34	0.1	x	x
35	1.7	x	-1.4
36	2.6	x	x
37	-3.8	-14	-3.1
38	3.6	0	-1.6
39	-0.8	-4	-3.2
40	6.0	8	2.2

Further compounds:
item	smiles	ALR inh	Vif A3G	RanGTP-Impb inh	Beta2AR agonist
41	O=C(O)c1cc(-c2ccc3c(c2)OCO3)nc2ccc(Cl)cc12	12	x	1.2	2
42	N#Cc1ccc(Oc2ccc(S(=O)(=O)N3CCCC3)cn2)cc1	x	-4%	0.4	-2
43	COc1cc(C)nc(N(C)C(C)=O)n1	-4	14%	4.3	6
44	CC(=O)COc1ncnc2c(Cl)cc(Cl)cc12	0	-10%	1.1	-3
45	O=C(COC(=O)c1cc(S(=O)(=O)N2CCCC2)ccc1O)Nc1ccc(S(=O)(=O)N2CCOCC2)cc1	3	x	2.5	5
46	O=C(Nc1cccc(-c2nc3ccccc3s2)c1)c1cc(-n2cnnc2)ccc1Cl	-10	2%	0.3	4
47	COc1ccc(NC(=O)C2(c3ccc(NC(=O)c4ccc(OC(C)=O)cc4)cc3)CCCC2)cc1	-1	-1%	-3.1	5
48	CCOC(=O)C(Cc1ccnnc1)=NO	x	-1%	x	-2
49	c1ccc(-c2cc3ccccc3nc2N2CCCC2)cc1	x	9%	-0.5	-13
50	CCOc1ccc(CN2C(=O)c3ccccc3C2C(=O)NCc2cccnc2)cc1 (centres undefined)	-3	0%	5.5	2

item	HNF4A DNA FP	Calb FLC	LANA-H2B inh
41	0.9	-5	-2.3
42	-3.3	9	x
43	2.6	-13	-5.5
44	0.1	-1	2.1
45	3.4	5	3.9
46	2.3	59	1.2
47	0.6	0	4.1
48	-6.2	x	x
49	3.7	3	6.0
50	1.9	8	1.2

Continuation:
item	smiles	ALR inh	Vif A3G	RanGTP-Impb inh	Beta2AR agonist
51	C(#CCN1CCOCC1)COC(c1ccccc1)c1ccccc1	1	-2%	-1.9	2
52	COc1cccc(/C=C/C(=O)OCC(=O)Nc2cc(C(F)(F)F)ccc2Cl)c1	x	x	-3.3	7
53	C/C(=N\NC(=O)c1ccco1)c1cc(Cl)sc1Cl	0	-7%	-1.2	-8
54	Fc1cccc(Nc2cc(-n3cccn3)ncn2)c1	-32	4%	4.3	-4
55	COc1cc2c(cc1OC)CN(C(=O)CCc1c[nH]c3ccccc13)[C@H](C(=O)O)C2	x	1%	-2.7	1
56	CC(c1ccccc1)N(NC(=O)C(O)(c1ccccc1)c1ccccc1)C(=O)c1ccccc1 (centres undefined)	x	-1%	3.0	6
57	O=C(NCCCn1ccnc1)/C(=C\c1cccnc1)NC(=O)c1ccccc1F	-20	x	-1.5	-4
58	CCCCOc1ccc(N=Nc2ccc(N)nc2N)cn1	55	9%	2.2	-6
59	COc1ccc([C@@H]2[C@@H]3C(=O)N(C(C)(C)C)C(=O)[C@@H]3[C@]3(Cc4ccccc4)C(=O)N(c4ccc(C(F)(F)F)cc4)C(=O)N23)cc1	-1	x	7.6	-6
60	N#C/C(=C\c1c(N2CCN(c3ccccc3)CC2)nc2ccccn2c1=O)S(=O)(=O)c1ccccc1	0	2%	-3.4	-5

item	HNF4A DNA FP	Calb FLC	LANA-H2B inh
51	2.2	-3	3.4
52	-0.6	17	-1.4
53	-1.6	16	0.2
54	-0.8	10	-0.5
55	-0.4	-17	-0.6
56	-1.2	-1	x
57	0.1	-1	2.8
58	6.3	-9	-4.2
59	2.5	4	-12
60	5.1	4	5.3

(listing goes on)
item	smiles	ALR inh	Vif A3G	RanGTP-Impb inh	Beta2AR agonist
61	CCOc1cc(N2CCOCC2)c(OCC)cc1NC(=O)c1ccc(F)c(S(=O)(=O)N2CCOCC2)c1	x	7%	x	4
62	O=C(C1CC1)N1CCC(C(O)(c2ccccc2)c2ccccc2)CC1	-8	-2%	-0.7	1
63	Cc1cc2c(cc1C)C(=O)C(Br)=C(N)C2=O	x	-10%	x	7
64	CC(=O)Nc1ccc(S(=O)(=O)NC(=O)C23CC4CC(CC(C4)C2)C3)cc1	5	3%	1.0	-1

item	HNF4A DNA FP	Calb FLC	LANA-H2B inh
61	-1.9	x	x
62	-1.8	14	-1.2
63	-0.1	x	x
64	7.1	4	-0.8
